Screening data deposited in PubChem by several laboratories.
Yeast UUG start = alters start codon recognition fidelity in yeast. activity score, % at 18.7 µM. S. cerevisiae UUG-firefly luciferase reporter, luminescence/redox ratio. 350,000 compounds, 0.13% hits;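 active = replicate mean at a twofold rise or more, about +100% in these data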;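 also: firefly luciferase made from a UUG start codon reports start codon fidelity; reporter light over untreated wells divided by growth signal over untreated wells; some hits fall short of that in this replicate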
PABP FP inh = PABP-poly(A) binding inhibition; 290,000 compounds, 1% hits; inhibition, % at 35 µM; PABP-poly(A) RNA binding, fluorescence polarization; AID 2014;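 active = 50% or more with normal probe brightness, or confirmed in later tests; inconclusive = above 50% with abnormal brightness, or retests that disagree; inactive = below 50% or failed in later tests; about a fifth of its hits are not listed in these tables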;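 also: calls also rest on retests at 20 µM and on dose response follow-up; controls were probe without protein and protein plus probe with vehicle; some compounds called inactive have numbers as strong as hits; many hits fall short of the cut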
Target sequence (P11940 whole entry, looked up): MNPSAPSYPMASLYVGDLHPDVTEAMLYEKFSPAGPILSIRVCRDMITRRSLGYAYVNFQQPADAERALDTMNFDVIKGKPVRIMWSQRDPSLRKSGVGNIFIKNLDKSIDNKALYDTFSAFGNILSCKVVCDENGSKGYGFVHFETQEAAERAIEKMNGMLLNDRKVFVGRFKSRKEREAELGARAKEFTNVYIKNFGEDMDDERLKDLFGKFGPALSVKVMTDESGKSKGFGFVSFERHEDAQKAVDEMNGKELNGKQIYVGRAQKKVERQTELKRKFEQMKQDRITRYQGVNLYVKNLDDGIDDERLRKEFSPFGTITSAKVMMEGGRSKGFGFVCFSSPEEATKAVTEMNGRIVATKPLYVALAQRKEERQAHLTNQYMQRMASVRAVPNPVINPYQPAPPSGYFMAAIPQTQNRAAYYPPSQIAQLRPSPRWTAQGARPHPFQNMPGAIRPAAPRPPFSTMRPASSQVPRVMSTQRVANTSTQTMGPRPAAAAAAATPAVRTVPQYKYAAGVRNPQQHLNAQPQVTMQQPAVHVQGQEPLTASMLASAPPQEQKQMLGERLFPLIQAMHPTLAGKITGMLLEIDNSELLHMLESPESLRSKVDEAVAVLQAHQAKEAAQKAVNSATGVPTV
MT1-MMP act inh = MT1-MMP (human) activation inhibition | AID 651647 | GFP/RFP ratio change, % at 20 µM | P50281 | 360,000 compounds, 0.061% hits | HT1080 RFP-PRO-GFP cells, GFP/RFP ratio fluorescence, overnight; percent of plate control window, DMSO zero;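 active = GFP/RFP ratio change of at least 30% with cell ATP level not reduced by more than half and red fluorescence within 50% of control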; also: strong numbers were not always called active
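Test system: HT1080 RFP-PRO-GFP cells; Benchmarks: DMSO and RFP-L50D-GFP cell wells; Timing: cells overnight before dosing, compound overnight, 37 °C, 5% CO2; Compound: one 20 µM compound dose with 1% DMSO; Read-out: GFP/RFP fluorescence ratio.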
eIF4H FP inh = inhibitors of RNA binding by human eIF4H | 290,000 compounds, 0.94% hits | AID 2012 | Q15056 | inhibition, % at 35 µM | eIF4H fluorescence polarization binding assay;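 active = 50% or more with normal probe brightness, or confirmed in later tests; inconclusive = above 50% with abnormal brightness, or retests that disagree; inactive = below 50% or failed in later tests; about a fifth of its hits are not listed in these tables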;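 also: calls also rest on retests at 20 µM and on dose response follow-up; 0% = protein and probe with vehicle and 100% = probe without protein; strong numbers were not always called active; many hits fall short of the cut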
Rce1 inhib = yeast Ras-converting enzyme inhibition; yeast membranes, quenched prenylated peptide cleavage fluorescence; calls only; 290,000 compounds, 0.27% hits;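 active = fall in fluorescence gain of 50% or more versus controls, with final raw signal at or below 3038400; inconclusive = same 50% fall but final raw signal above 3038400; inactive = fall in fluorescence gain under 50%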;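 also: plate controls were neutral control wells for no effect and wells lacking membranes for full effect; tested at 10 µM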
Target sequence (Q03530 whole entry, looked up): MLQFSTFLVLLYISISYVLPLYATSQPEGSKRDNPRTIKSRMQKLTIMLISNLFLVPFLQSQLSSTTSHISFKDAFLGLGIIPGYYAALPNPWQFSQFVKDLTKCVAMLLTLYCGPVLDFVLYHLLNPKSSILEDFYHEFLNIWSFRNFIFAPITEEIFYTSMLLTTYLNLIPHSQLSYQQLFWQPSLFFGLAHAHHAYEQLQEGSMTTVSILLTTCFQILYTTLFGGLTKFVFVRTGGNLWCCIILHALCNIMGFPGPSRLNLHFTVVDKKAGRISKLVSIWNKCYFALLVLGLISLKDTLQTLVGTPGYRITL
Env fusion inh = inhibitors of HIV Env-mediated cell fusion; HeLa-JRFL Env/CEM21 cell fusion, luciferase; inhibition, % at 12.3 µM; 360,000 compounds, 1.1% hits;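 active = mean replicate inhibition score of at least 50 and every replicate individually at or above 50; inconclusive = only one of the two criteria met; inactive = mean below 50 and not all replicates reaching 50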;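 also: 0% = plate neutral controls and 100% = maraviroc near 300 nM; one replicate is shown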
CSC inhib = cancer stem cell inhibition; cancer stem cell-like cells viability, luminescence; 300,000 compounds, 1.1% hits; inhibition, % at 7.5 µM;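 active = mean at 75% or more and at least half the replicates too; inconclusive = mean and replicates disagree; tested in HMLE shEcad cells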;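 also: 0% = median of negative and 100% = median of positive control wells; the first replicate is given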
eIF4H FP inh retest = recorded beside eIF4H FP inh, whose call it bears; inhibition, %; compound at 20 µM; confirmation average;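 mean of two retest wells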
PABP FP inh retest = recorded beside PABP FP inh, whose call it bears; inhibition, %; compound at 20 µM; confirmation repeats;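 mean of two retest wells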
MT1-MMP act inh RFP = also measured in MT1-MMP act inh; calls as there; RFP signal change, %; measured here: RFP expression control read;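 0 = vehicle wells; hits needed this value within 50% of zero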
* marks the source's active call; other numbers are inactive results; i = inactive; u = inconclusive; x = not tested or not shown; [ ] = dose if it differs, or a comment.

SMILES	Yeast UUG start	PABP FP inh	MT1-MMP act inh	MT1-MMP act inh RFP	eIF4H FP inh	Rce1 inhib	Env fusion inh	CSC inhib	others
O=C1OCCC1Sc1nnc(-c2ccco2)o1 (stereo not given)	-6	6	1	3	80	i	x	-8	eIF4H FP inh retest=26;PABP FP inh retest=20
Cc1nc2ccc([N+](=O)[O-])cc2s1	x	-3	2	3	7	i	-4	-9
CN(C)CCNC(=O)C1CCCNC1=O (stereo not given)	-13	6	0	1	11	i	-59	13
CC(=O)c1ccc(N(CC(=O)NC2CCS(=O)(=O)C2)S(=O)(=O)c2ccc(Cl)cc2)cc1 (stereo not given)	-11	x	2	1	x	x	20	0
Cc1cccc(C(=O)NC(=S)N2CCc3ccccc3C2)c1	x	14	3	4	4	x	-8	11
O=C1/C(=C/c2cccc([N+](=O)[O-])c2)CCc2ccccc21	-5	19	-1	-15	-11	i	-15	-8
Cn1nnnc1SCC(=O)NCc1ccco1	-14	-7	-2	2	3	i	-23	-7
CCOC(=O)Cn1c(=O)oc2cc(S(=O)(=O)N3CCn4c3nc3ccccc34)ccc21	-12	-12	1	-1	1	i	2	-7
CCC(C)NS(=O)(=O)c1ccc(OCC(=O)N2CCCCC2)cc1 (stereo not given)	-6	2	2	4	1	i	-14	-6
CN1CCC(=C2c3ccccc3Sc3ccccc32)CC1	-5	x	-11	-4	x	x	14	x
CC(=O)Nc1ccc(NC(=O)c2cc(-c3cc(F)ccc3OCC3CCCO3)n[nH]2)cc1 (stereo not given)	-11	x	0	-3	x	x	6	x
O=S(=O)(Cc1ccccc1)NCC1CCCN(Cc2ccc3nonc3c2)C1 (stereo not given)	x	0	0	-1	5	i	6	-11
O=C(Cc1ccccc1)NCc1ccccn1	-11	0	5	7	-7	i	14	0
S=C(Nc1ccc(Br)cc1Cl)N1CCN(c2ccccn2)CC1	-14	-6	0	0	-1	i	33	-13
Cc1cc2c(c(=O)n1Cc1ccc3c(c1)OCO3)C(c1cccnc1)C(C#N)=C(N)O2 (stereo not given)	-10	54	4	8	-14	i	-12	-6	eIF4H FP inh retest=-9;PABP FP inh retest=5
CC(NC(=O)COC(=O)CCC(=O)c1ccc(Cl)cc1)c1ccccc1 (stereo not given)	2	x	-1	1	x	x	0	-16
O=C(CSc1nc2ccccc2[nH]1)Nc1c(F)cccc1F	-7	-4	-3	-1	-11	i	-31	32
Cc1cccn2c(=O)c3cc(C(=O)NCC4CCCO4)c(=N)n(CCc4ccccc4)c3nc12 (stereo not given)	0	2	3	-1	16	i	-13	x
Cc1ccc(NC(=O)CCC(=O)NNC(=O)C(C)(C)C)c(C)c1	x	-8	0	4	-3	i	2	-6
CCCCOc1ccc(OCCCC)c2c1NC1(N2)C(=O)N(C(C)=O)c2ccccc21	-8	-17	-14	-3	5	i	x	0
C=CCNC(=O)c1ccc(Sc2ccc(C)cc2)c([N+](=O)[O-])c1	-40	9	2	-1	-10	i	x	0
Brc1ccc(Nc2nc3ccccc3n3nnnc23)cc1	x	87*	x	x	79*	i	x	-8
CCOC(=O)C1(S(=O)(=O)c2ccc(Cl)cc2)CCN(Cc2ccc(C)cc2)CC1	7	-2	-2	-3	-1	i	-27	13
CC(Cn1cncn1)C(=O)N1CCN(S(=O)(=O)c2ccccc2)CC1 (stereo not given)	-6	-12	1	5	-6	x	-13	9
CC(C)(C)c1ccc(OCC(=O)OCCNC(=O)c2cccnc2)cc1	0	7	-17	-6	-5	i	-6	7
CCOC(=O)C1(Cc2cccc(Cl)c2)CCCN(C(=O)c2cc(C)[nH]n2)C1 (stereo not given)	-4	-11	-2	-1	-8	i	-75	-3
COC(C[C@H]1O[C@H]1C(=O)[C@H](C)OCc1ccccc1)OC	-5	x	1	-2	x	i	10	-11
COc1ccccc1-n1cnc2cc(C(=O)N3CCOCC3)ccc21	-11	x	-3	-3	x	i	4	-3
CC1CN(CCOCCOc2ccccc2-c2ccccc2)CC(C)O1 (stereo not given)	-6	15	1	2	10	i	-8	x
COc1ccc(C(C)(NC(C)=O)c2nc(-c3cccc(C#N)c3)cs2)cc1 (stereo not given)	16	x	0	1	x	x	-24	x
CCC1(CC)NC(=O)N(CC(=O)N2CCN(c3ccccc3F)CC2)C1=O	-4	x	0	6	x	x	x	3
COc1cccc(CNC(=O)CCS(=O)(=O)Cc2ccc(C)cc2)c1	-13	0	5	4	-14	i	4	-2
Cc1cc(=O)oc2c(C)c(OC(C)C(=O)NC(Cc3c[nH]c4ccc(O)cc34)C(=O)O)ccc12 (stereo not given)	-24	30	0	-2	28	i	x	0
CN(CC(CC(=O)Nc1nncs1)c1ccccc1)S(=O)(=O)c1ccc(Br)cc1 (stereo not given)	-10	-2	2	-5	4	i	-4	0
C=CCN([C@H](C(=O)OC)C(C)C)S(=O)(=O)CCNCc1ccccc1	-3	x	1	3	x	x	62*	x
CCOc1ccc(NC(=O)CN(c2ccc(C)cc2)S(=O)(=O)c2c(C)nn(C)c2C)cc1	13	-4	-4	-2	-10	i	1	22
COc1ccc(N2CCN(C(=O)c3ccccc3NC(=O)c3ccccc3)CC2)cc1	8	-11	-1	-3	4	i	0	-1
COc1cc(C(=O)NC2CCN(Cc3ccccc3)CC2)cc(Cl)c1OC	-12	-2	4	3	-5	i	1	5
CN(C)C(=O)CCc1ccc2c3c([nH]c2c1)[C@]1(CCC2CCCC2)[C@@H](C(=O)N2CCOCC2)C[C@H](CC(=O)NC(C)(C)C)C(=O)N1CC3	0	x	1	1	x	x	-71	x
O=C(CSc1ccc(-c2ccccc2)nn1)N1CCN(c2ccccc2)CC1	-12	-7	1	-1	-1	i	12	-10
COc1ccccc1NS(=O)(=O)c1ccc(Br)s1	-6	7	-10	-1	8	i	-38	-2
O=C(NCC1CCCN(C(=O)Cc2ccccc2Cl)C1)c1ccc(F)cc1 (stereo not given)	-5	9	2	0	13	i	1	-12
O=C(CSc1nnc(-c2ccc(C(F)(F)F)cn2)o1)Nc1cccc(Cl)c1	-8	-8	1	0	-6	i	-36	-7
CC(C)c1nc(SCC(=O)N2CCCCCC2)c2c(=O)n(C)c(=O)n(C)c2n1	1	-13	4	-11	-2	i	20	10
CC(=O)c1ccc(Cl)c(Cl)c1Cl	-6	x	0	7	x	x	x	-6
Cc1ccc(C(c2sc3nc(C)nn3c2O)N2CCN(CCO)CC2)cc1 (stereo not given)	-16	-5	4	6	-4	i	-10	-2
O=C(CCC(=O)c1cccs1)c1cccs1	-10	2	-4	-13	-11	i	-193	4
CCc1ccc(NC(=O)Cn2ccn(-c3cccc(Cl)c3)c(=O)c2=O)cc1	-7	8	0	5	6	i	11	x

The final five records of the part above come first, to join the parts.
SMILES	Yeast UUG start	PABP FP inh	MT1-MMP act inh	MT1-MMP act inh RFP	eIF4H FP inh	Rce1 inhib	Env fusion inh	CSC inhib	others
CC(C)c1nc(SCC(=O)N2CCCCCC2)c2c(=O)n(C)c(=O)n(C)c2n1	1	-13	4	-11	-2	i	20	10
CC(=O)c1ccc(Cl)c(Cl)c1Cl	-6	x	0	7	x	x	x	-6
Cc1ccc(C(c2sc3nc(C)nn3c2O)N2CCN(CCO)CC2)cc1 (stereo not given)	-16	-5	4	6	-4	i	-10	-2
O=C(CCC(=O)c1cccs1)c1cccs1	-10	2	-4	-13	-11	i	-193	4
CCc1ccc(NC(=O)Cn2ccn(-c3cccc(Cl)c3)c(=O)c2=O)cc1	-7	8	0	5	6	i	11	x
CCN1C(=O)/C(=C/C=C2\N(CC)c3cc(S(=O)(=O)N(C)C)ccc3N2c2ccccc2)SC1=S	x	u	-29	60	u	i	9	25
Cc1ccc(CN(C)C(=O)c2cccc(S(=O)(=O)N3CCc4ccccc4C3)c2)o1	9	x	-1	-2	x	x	x	9
Cc1cc(C(=O)COC(=O)/C=C/c2ccc(F)cc2)c(C)n1C	-14	x	1	-1	x	x	-6	-16
CCN(CC(=O)Nc1c(F)cccc1F)C(=O)c1ccc(NC(=O)CC2SC(N3CCCC3)=NC2=O)cc1 (stereo not given)	-2	x	2	3	x	i	-4	-6
CC(=O)Nc1ccc(/C=N/NC(=O)CNS(=O)(=O)c2ccccc2)cc1	x	-3	-2	1	-1	i	4	13
CSc1ncccc1C(=O)OCC(=O)N1CCN(S(=O)(=O)c2ccc(C)cc2C)CC1	-13	x	-2	0	x	x	x	-1
Cc1nc2ccccc2c(=O)n1/N=C/c1ccc(F)cc1	-15	7	-1	-2	5	i	-10	-3
Cn1c(SCC(=O)c2ccc3c(c2)OCCO3)nnc1C1CC1	x	-1	0	1	-6	i	-5	-13
CC(C)NC(=O)Nc1ccc2c(c1)C(=O)N([C@@H](C)CO)C[C@H](C)[C@H](CN(C)S(=O)(=O)c1ccccc1)OCCCC[C@H](C)O2	11	x	-1	-2	x	x	7[16.7 µM]	x
CCOC(=O)c1c(C)c(C(=O)Nc2cc(F)ccc2F)c(C)n1C	x	2	-6	-9	7	i	-60	2
C[N+](C)(CC#Cc1ccccc1)CC(=O)c1ccc(Cl)cc1	x	-9	0	5	-5	i	x	-3
CCOC(=O)c1c(C)[nH]c(N=Nc2ccc(C)cc2)c1C	0	-6	6	-2	-7	i	x	28

Continued; it opens with the three that closed the last part.
SMILES	Yeast UUG start	PABP FP inh	MT1-MMP act inh	MT1-MMP act inh RFP	eIF4H FP inh	Rce1 inhib	Env fusion inh	CSC inhib	others
CCOC(=O)c1c(C)c(C(=O)Nc2cc(F)ccc2F)c(C)n1C	x	2	-6	-9	7	i	-60	2
C[N+](C)(CC#Cc1ccccc1)CC(=O)c1ccc(Cl)cc1	x	-9	0	5	-5	i	x	-3
CCOC(=O)c1c(C)[nH]c(N=Nc2ccc(C)cc2)c1C	0	-6	6	-2	-7	i	x	28
COc1ccc(OC)c2[nH]c(=O)c(CCNC(=O)C(C)(C)C)cc12	-12	4	1	5	-1	i	-10	-14
O=C(COc1ccc2ccccc2c1)NCC1CCCO1 (stereo not given)	x	10	1	4	-5	i	4	-13
COc1cc(/C=N/n2cnc3scc(-c4cccs4)c3c2=O)cc(OC)c1OC	x	-7	-1	-3	7	i	16	55
O=C(c1ccccc1)c1ccc(OCC(O)CN2CCCC2)cc1 (stereo not given)	-16	3	4	1	-15	i	-68	23
CCc1ccc(NC(=O)NNC(=O)c2ccc3ccccc3c2O)cc1	-17	4	0	2	-5	i	-20	5
Cc1ccc(/C=N/N2CCN(Cc3ccc(C)cc3)CC2)cc1	-6	8	-1	6	-4	i	8	1
C/C(=N\NC(=O)CN1CCCCC1)c1ccccc1O	-17	15	2	2	2	i	1	6
CCOC(=O)c1cc(-c2ccc(N3CCOCC3)cc2)nn1-c1ccccc1C(=O)O	5	6	0	7	76	i	6	-10	eIF4H FP inh retest=4;PABP FP inh retest=1

A portion of the library; the hit share may differ from the screen's.
